Screens: PubChem, several laboratories
Rce1 inhib = yeast Ras-converting enzyme inhibition. Q03530. yeast membranes, quenched prenylated peptide cleavage fluorescence. calls only. 0.27% of 290,000 active;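 active = fall in fluorescence gain of 50% or more versus controls, with final raw signal at or below 3038400; inconclusive = same 50% fall but final raw signal above 3038400; inactive = fall in fluorescence gain under 50%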;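 also: plate controls were neutral control wells for no effect and wells lacking membranes for full effect; tested at 10 µM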
Target sequence (Q03530 whole entry, looked up): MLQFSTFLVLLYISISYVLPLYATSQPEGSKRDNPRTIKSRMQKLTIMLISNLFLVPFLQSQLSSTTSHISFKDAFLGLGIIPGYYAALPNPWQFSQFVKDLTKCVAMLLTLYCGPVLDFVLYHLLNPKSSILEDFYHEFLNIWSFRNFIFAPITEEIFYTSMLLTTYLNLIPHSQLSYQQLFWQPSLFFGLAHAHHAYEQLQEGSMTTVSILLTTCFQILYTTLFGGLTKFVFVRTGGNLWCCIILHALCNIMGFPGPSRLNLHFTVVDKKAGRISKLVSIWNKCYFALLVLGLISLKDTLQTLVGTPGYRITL
PABP polyA inh = PABP-poly(A) binding inhibition; PABP-poly(A) RNA binding, fluorescence polarization; P11940; 1% of 290,000 active; inhibition, % at 35 µM;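 active = 50% or more with normal probe brightness, or confirmed in later tests; inconclusive = above 50% with abnormal brightness, or retests that disagree; inactive = below 50% or failed in later tests; about a fifth of its hits are not listed in these tables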;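 also: calls also rest on retests at 20 µM and on dose response follow-up; controls were probe without protein and protein plus probe with vehicle; some compounds called inactive have numbers as strong as hits; many hits fall short of the cut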
MT1-MMP act inh = inhibitors of human MT1-MMP activation. P50281. GFP/RFP ratio change, % at 20 µM. HT1080 RFP-PRO-GFP cells, GFP/RFP ratio fluorescence, overnight; percent of plate control window, DMSO zero. 0.061% of 360,000 active;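 active = GFP/RFP ratio change of at least 30% with cell ATP level not reduced by more than half and red fluorescence within 50% of control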; also: strong numbers were not always called active
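Assay system: HT1080 cells carrying an RFP-PRO-GFP reporter | Dosing: Single dose of 20 µM compound, 1% DMSO final | Incubation: Cells overnight before dosing, compound overnight, 37 °C, 5% CO2 | Evaluation: GFP/RFP fluorescence ratio | Control set: DMSO and RFP-L50D-GFP cell wells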
eIF4H FP inh = inhibitors of RNA binding by human eIF4H | Q15056 | eIF4H fluorescence polarization binding assay | inhibition, % at 35 µM | 0.94% of 290,000 active | AID 2012;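 active = 50% or more with normal probe brightness, or confirmed in later tests; inconclusive = above 50% with abnormal brightness, or retests that disagree; inactive = below 50% or failed in later tests; about a fifth of its hits are not listed in these tables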;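 also: calls also rest on retests at 20 µM and on dose response follow-up; 0% = protein and probe with vehicle and 100% = probe without protein; strong numbers were not always called active; many hits fall short of the cut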
CSC inhib = cancer stem cell inhibition; cancer stem cell-like cells viability, luminescence; inhibition, % at 7.5 µM; 1.1% of 300,000 active; AID 2717;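 active = mean at 75% or more and at least half the replicates too; inconclusive = mean and replicates disagree; tested in HMLE shEcad cells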;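 also: 0% = median of negative and 100% = median of positive control wells; the first replicate is given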
HIV Env fusion = blocks HIV Env-driven cell-cell fusion. HeLa-JRFL Env/CEM21 cell fusion, luciferase. 1.1% of 360,000 active. AID 651610. inhibition, % at 12.3 µM;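 active = mean replicate inhibition score of at least 50 and every replicate individually at or above 50; inconclusive = only one of the two criteria met; inactive = mean below 50 and not all replicates reaching 50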;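 also: 0% = plate neutral controls and 100% = maraviroc near 300 nM; one replicate is shown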
UUG fidelity = alters start codon recognition fidelity in yeast. S. cerevisiae UUG-firefly luciferase reporter, luminescence/redox ratio. activity score, % at 18.7 µM. 0.13% of 350,000 active. AID 602363;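 active = replicate mean at a twofold rise or more, about +100% in these data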;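 also: firefly luciferase made from a UUG start codon reports start codon fidelity; reporter light over untreated wells divided by growth signal over untreated wells; some hits fall short of that in this replicate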
eIF4H FP inh retest = second read-out of eIF4H FP inh, no call of its own (marks repeat the call); inhibition, %; compound at 20 µM; confirmation average;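 mean of two retest wells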
PABP polyA inh retest = recorded beside PABP polyA inh, whose call it bears; inhibition, %; compound at 20 µM; confirmation repeats;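 mean of two retest wells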
MT1-MMP act inh RFP = further read-out of MT1-MMP act inh, marked with its call; RFP signal change, %; measured here: RFP expression control read;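 0 = vehicle wells; hits needed this value within 50% of zero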
Numbers without * were called inactive; i = inactive; ? = inconclusive; / = no result given.

SMILES	Rce1 inhib	PABP polyA inh	MT1-MMP act inh	MT1-MMP act inh RFP	eIF4H FP inh	CSC inhib	HIV Env fusion	UUG fidelity	others
Cc1ccc(C(=O)c2coc3c2C(=O)C(=O)c2ccccc2-3)cc1	/	2	9	8	-6	71	/	-10
COc1ccc2ncc(OC(C)=O)cc2c1	i	-11	-1	0	-3	-14	-18	/
COc1ccccc1CC(=O)Nc1ccc(S(=O)(=O)N2CCN(C)CC2)cc1	i	5	-4	3	4	-13	0	-11
CCc1nn(CCCC(=O)NCc2ccc(OC(C)C)cc2)c(=O)c2cc3occc3n12	i	9	1	-6	1	46	24	11
CC(C)c1ccc(NC(=O)NC2CCCCC2)cc1	i	8	-1	1	-10	19	/	-19
CSc1ccccc1OCc1cc(C(=O)N2CCN(c3ncccn3)CC2)no1	i	6	0	-1	4	-2	11	-12
COc1cc(/C=C2\SC(=O)NC2=O)ccc1OCC(=O)N1CCOCC1	/	/	8	-6	/	3	10	-3
CS(=O)(=O)N1CCc2ccccc2C1	i	-4	-1	3	4	-2	/	-7
COc1ccc(CNCc2ccc3c(c2)OCO3)c(OC)c1OC	i	7	-1	0	1	/	9	6
Cc1ccc(C(=O)NCC(=O)OCC(=O)c2c(N)n(C)c(=O)n(C)c2=O)s1	i	13	1	1	8	-10	/	-18
CON(C)C(=O)c1ccccc1N(C)C(=O)OC(C)(C)C	/	/	0	4	/	/	4	-14
COc1ccc(N2C(=O)C(=O)/C(=C(/O)c3ccc(C)cc3)C2c2cccnc2)cc1 (stereo not given)	i	-4	-33	10	2	-6	-13	/

3 structures from above, arranged by number of heavy atoms, rising.
SMILES	Rce1 inhib	PABP polyA inh	MT1-MMP act inh	MT1-MMP act inh RFP	eIF4H FP inh	CSC inhib	HIV Env fusion	UUG fidelity	others
COc1ccc2ncc(OC(C)=O)cc2c1	i	-11	-1	0	-3	-14	-18	/
Cc1ccc(C(=O)c2coc3c2C(=O)C(=O)c2ccccc2-3)cc1	/	2	9	8	-6	71	/	-10
COc1ccccc1CC(=O)Nc1ccc(S(=O)(=O)N2CCN(C)CC2)cc1	i	5	-4	3	4	-13	0	-11

New compounds follow.
SMILES	Rce1 inhib	PABP polyA inh	MT1-MMP act inh	MT1-MMP act inh RFP	eIF4H FP inh	CSC inhib	HIV Env fusion	UUG fidelity	others
CN(Cc1nccn1C)C(=O)C1CCC(=O)N(CCc2ccc(Cl)cc2)C1 (stereo not given)	/	-9	0	3	-2	-1	-45	-1
COc1ccc(C)cc1NC(=O)Cc1csc(NC(=O)Nc2ccccc2OC)n1	/	/	-5	-14	/	/	18	-19
NS(=O)(=O)c1cccc(NC(=O)COC(=O)Cc2ccc(Cl)cc2)c1	i	4	-1	2	60	10	5	4	eIF4H FP inh retest=22;PABP polyA inh retest=15
COc1ccc(/C=C/C(=O)OCC(=O)c2c(N)n(C)c(=O)n(C)c2=O)cc1	i	0	1	-4	11	14	20	-43
CSCC[C@H](NC(=O)Cc1ccc(Cl)cc1)C(=O)N1CCC2(CC1)NCCc1[nH]cnc12	i	/	-1	1	/	-7	-7	-10
CCN(CC)c1ccc(C(NC(=O)C(C)C)c2ccc3cccnc3c2O)cc1 (stereo not given)	/	/	-9	-20	/	/	2	-20
CC(C)c1nnc(NC(=O)COc2ccccc2[N+](=O)[O-])s1	i	-4	1	0	-2	-9	-13	-9
CCOC(=O)C1(Cc2cccc(OC)c2)CCCN(Cc2ccc(NC(C)=O)cc2)C1 (stereo not given)	i	-7	-8	-3	80	31	18	-5	eIF4H FP inh retest=-3;PABP polyA inh retest=9
CCC(C)(C)NC(=O)C(c1ccc(OC)cc1)N(C(=O)CCC(=O)Nc1cc(C)on1)c1ccc(F)cc1 (stereo not given)	i	3	-1	0	-21	-37	6	-7
COCCN(CC(=O)Nc1cccc(C)c1C)C(=O)c1oc2ccccc2c1C	/	/	-2	-2	/	-9	-11	-11
CCO[C@H]1OC(C(=O)N2CCN(Cc3ccc4c(c3)OCO4)CC2)=C[C@@H](c2ccccc2)[C@@H]1CCCO	i	-4	3	1	-8	32	2	-16
CN(C)CCCN(C(=O)CCc1ccccc1)c1nc2ccc(Br)cc2s1	i	0	-15	-14	-5	49	-36	-6
CCCCn1nnnc1NCc1ccc(N2CCCC2)cc1	i	3	-4	1	3	/	/	-2
Cc1[nH]c2ccccc2c1/C=C/c1nc2ccccc2c(=O)n1CCO	i	10	1	-6	0	-3	?	1
O=C(Cc1ccccc1)Nc1cccc(S(=O)(=O)N2CCCCCC2)c1	/	/	5	-1	/	-1	/	-13
COc1ccc(C)cc1NC(=O)CSc1nnc(-c2ccc(OC)c(OC)c2)n1N	i	-1	8	3	-1	-13	-12	-19
O=C(OCC(=O)N1CCN(c2cccc(Cl)c2)CC1)c1ccco1	/	/	8	3	/	-11	0	1
CCc1nnc(SCc2ccc(OC)c(Br)c2)n1N	i	-2	5	5	1	1	/	-14
O=[N+]([O-])c1cc(/C=N\O)ccc1Oc1ccc(F)cc1	i	-2	0	2	3	46	-15	/
Cc1cc(Nc2cccc(F)c2)nc(NCc2ccccc2)n1	i	10	-6	-17	3	39	38	/
CSc1cccc(NC(=O)C2CCCN(S(=O)(=O)c3cccs3)C2)c1 (stereo not given)	/	3	2	0	1	10	7	-5
Cc1cc2oc(=O)cc(CN3CCCCCCC3)c2cc1Cl	/	/	2	5	/	/	6	-12
O=C(NC1CCN(Cc2ccccc2)CC1)C1COc2ccccc2O1 (stereo not given)	i	-9	-1	1	1	-7	-42	-9
Cc1nccn1-c1ccc(C(F)(F)F)cc1NC=O	i	3	1	3	-1	-8	/	-20
O=C(CCN1C(=O)c2ccccc2C1=O)Oc1ccc2ccccc2c1	i	-1	-4	2	-4	0	9	-17
Cc1cc(Cl)ccc1OCc1nc(-c2ccc(O)cc2)n[nH]1	i	1	4	-2	-1	40	-61	-20
CN(C)c1ccc(C(CC(=O)c2ccccc2)C2CCCCC2=O)cc1 (stereo not given)	i	-5	1	1	-13	2	22	/
COc1cccc(C(=O)NCc2cccnc2)c1	i	4	2	2	2	-17	/	-15
CCC(C)(C(=O)NC1CCCC1)N(C(=O)CC1NC(=O)NC1=O)c1ccc(C)cc1 (stereo not given)	i	-11	-4	1	-4	-13	-54	-6
Cc1c(C(=O)NCCc2ccc3c(c2)OCCO3)oc2ccccc12	i	-7	3	-1	-10	10	-100	-8
O=C(CN1C(=O)CCSc2ccccc21)Nc1ccc2c(c1)OCO2	i	4	3	-2	2	-2	-26	-1
Cc1ccc(OCCn2cnc3c(N)ncnc32)cc1	i	13	6	-3	2	-32	23	5
O=C1C=C(c2cc(F)ccc2F)C[C@@H](c2ccc(F)cc2)C1	/	/	7	-2	/	28	-1	-16
CC1CCN(C(=O)Cn2nnc(-c3ccc(N)cc3)n2)CC1	i	6	4	2	-8	-7	-6	-26
Cc1ccc(NC(=O)c2c(-c3ccccc3)noc2C)nc1	i	-11	1	2	2	-4	16	/
Cc1ccc(S(=O)(=O)CC2CSc3nnc(C)c(=O)n32)cc1 (stereo not given)	i	-5	-5	0	-8	/	-12	6

Random excerpt: 7 compounds from above, in no set order.
SMILES	Rce1 inhib	PABP polyA inh	MT1-MMP act inh	MT1-MMP act inh RFP	eIF4H FP inh	CSC inhib	HIV Env fusion	UUG fidelity	others
O=C(Cc1ccccc1)Nc1cccc(S(=O)(=O)N2CCCCCC2)c1	/	/	5	-1	/	-1	/	-13
CCCCn1nnnc1NCc1ccc(N2CCCC2)cc1	i	3	-4	1	3	/	/	-2
COc1ccc(C)cc1NC(=O)CSc1nnc(-c2ccc(OC)c(OC)c2)n1N	i	-1	8	3	-1	-13	-12	-19
CCOC(=O)C1(Cc2cccc(OC)c2)CCCN(Cc2ccc(NC(C)=O)cc2)C1 (stereo not given)	i	-7	-8	-3	80	31	18	-5	eIF4H FP inh retest=-3;PABP polyA inh retest=9
CN(C)CCCN(C(=O)CCc1ccccc1)c1nc2ccc(Br)cc2s1	i	0	-15	-14	-5	49	-36	-6
CN(C)c1ccc(C(CC(=O)c2ccccc2)C2CCCCC2=O)cc1 (stereo not given)	i	-5	1	1	-13	2	22	/
Cc1ccc(C(=O)c2coc3c2C(=O)C(=O)c2ccccc2-3)cc1	/	2	9	8	-6	71	/	-10

(further entries)
SMILES	Rce1 inhib	PABP polyA inh	MT1-MMP act inh	MT1-MMP act inh RFP	eIF4H FP inh	CSC inhib	HIV Env fusion	UUG fidelity	others
CCCN(CC1CC1)C(=S)NC(=O)c1ccccc1Br	/	/	-2	-1	/	-7	1	-21
O=C(c1ccc(Cl)nc1)N1CCc2ccccc2C1	i	-6	-2	3	-1	-19	/	-2
CCC[C@@H](CN1CCC[C@H]1CN1C(N)=NC[C@H]1C(C)C)N1C[C@@H](Cc2ccccc2)N(CCCC2CCCC2)C1=N	/	/	2	4	/	-16	/	8
O=C(CNC(=O)c1ccc(Cl)cc1)OCN1C(=O)c2ccccc2C1=O	/	/	1	3	/	-9	7	-16
COc1ccc(OC(=O)C2CC(=O)N(c3ccc(C)cc3)C2)cc1 (stereo not given)	/	-12	-3	2	-1	9	26	/
CCNC(=O)COC(=O)c1ccc(-c2nc3ccccc3s2)s1	i	9	6	0	-6	17	-14	/
O=C(Cn1ncc(Cl)c(Cl)c1=O)N1CCN(S(=O)(=O)c2ccc3ccccc3c2)CC1	i	4	-10	-19	-6	102*	-15	-15
Cc1nc([N+](=O)[O-])c(N2CCN(C)CC2)n1Cc1ccccc1	i	-8	-2	6	-4	3	11	-14
CCCCn1cnc2c1c(=O)n(C)c(=O)n2C	i	-15	-5	1	0	-8	-61	-10
N#CC1(Cc2ccc([N+](=O)[O-])cc2)c2ccccc2C=CN1C(=O)c1ccccc1 (stereo not given)	i	-6	-2	-4	-10	16	/	29
O=C1CC(N2CCN(c3nc4ccccc4s3)CC2)C(=O)N1c1ccc(F)cc1 (stereo not given)	i	1	1	0	-5	-11	/	16
COCCNC(=O)CN(C(=O)CCC(=O)Nc1ccccn1)c1ccc(F)cc1	i	7	10	3	-1	-6	/	-4

Nothing new here: entries from further up.
SMILES	Rce1 inhib	PABP polyA inh	MT1-MMP act inh	MT1-MMP act inh RFP	eIF4H FP inh	CSC inhib	HIV Env fusion	UUG fidelity	others
O=C(Cn1ncc(Cl)c(Cl)c1=O)N1CCN(S(=O)(=O)c2ccc3ccccc3c2)CC1	i	4	-10	-19	-6	102*	-15	-15
Cc1nc([N+](=O)[O-])c(N2CCN(C)CC2)n1Cc1ccccc1	i	-8	-2	6	-4	3	11	-14
CCCCn1cnc2c1c(=O)n(C)c(=O)n2C	i	-15	-5	1	0	-8	-61	-10
